# High-throughput results deposited in PubChem BioAssay by Emory University Molecular Libraries Screening Center.
# Measles inh – inhibitors of measles virus growth in infected cells; infected Vero cells, GFP fluorescence, 64 h; hits give low values; hit rate 0.1% among 33,000; AID 745; z-score (concentration not given with the values);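 active = z-score under -3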;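 also: score is relative to mean and SD of the compound wells of a plate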
# Active calls of the source: *. Only part of the results is shown; rates above refer to the full screens.
SMILES,Measles inh
Cc1cccc(C)c1NC(=O)C(c1ccccc1)N1CCc2ccccc21 (configuration not stated),2.33
CCSc1oc(-c2cccs2)nc1S(=O)(=O)c1ccc(C)cc1,1.24
CCCNC(=O)C1(O)c2cc(Br)ccc2NC(=O)N1c1ccccc1 (configuration not stated),-1
CCn1c2ccccc2c2cc(C3C(C(=O)OCCOC)=C(C)NC4=C3C(=O)CCC4)ccc21 (configuration not stated),-0.69
COC(=O)C1=C(C(=O)OC)SC2(S1)C(C(=O)OC)=C(C(=O)OC)SC1=C2c2cc(C)c(C)cc2NC1(C)C,0.21
Cc1cccc(N2CCN(C(=O)c3ccc4nc(-c5ccco5)c(-c5ccco5)nc4c3)CC2C)c1 (configuration not stated),-0.13
CC1CC(C)CN(S(=O)(=O)c2ccc(F)c(C(=O)NC(c3ccccc3)c3ccccc3)c2)C1 (configuration not stated),1.3
COC(=O)c1ccc(NC(=O)c2cc3c(CO)cnc(C)c3oc2=Nc2ccc(Cl)cc2)cc1,-0.16
Cc1cc(C)c(C(N)=O)c(Cl)n1,-0.51
CC(C)(C)NC(=O)CSc1nc2ccc(NC(=O)C3CCCCC3)cc2s1,-1.15
O=C(O)CCCCCn1c(=S)[nH]c2ccsc2c1=O,0.11
CCOc1ccc(C2Nc3ccc4ncccc4c3C3=C2C(=O)CC(c2ccccc2)C3)cc1 (configuration not stated),1.32
Cc1cc(C)c(NC(=O)C(C)Sc2nc3ccccc3s2)c(C)c1 (configuration not stated),-0.39
CN(CCC#N)S(=O)(=O)c1ccc2[nH]cc(C(=O)O)c(=O)c2c1,1.4
COc1ccccc1-c1coc2cc(OCC(=O)OCC(C)C)ccc2c1=O,-0.25
CCCn1c(=N)n(CCOc2ccc(OC)cc2)c2ccccc21,-0.03
Cc1ccc(C(=O)c2sc3nc4c(cc3c2N)C(=O)CC(C)(C)C4)cc1,1.13
O=C(COc1ccc(Cl)cc1)N1CCN(C(=O)c2ccncc2)CC1,-0.65
CC1(C)CC(=O)C2=C(C1)OC1=C(C(=O)CC(C)(C)C1)C2c1cccc(Oc2ccccc2)c1,0
CC(C)(C)c1ccc(S(=O)(=O)NCc2ccc(C(=O)O)cc2)cc1,1.12

# 15 structures out of the list, arranged by formula weight, smallest number first.
SMILES,Measles inh
Cc1cc(C)c(C(N)=O)c(Cl)n1,-0.51
O=C(O)CCCCCn1c(=S)[nH]c2ccsc2c1=O,0.11
CCCn1c(=N)n(CCOc2ccc(OC)cc2)c2ccccc21,-0.03
CN(CCC#N)S(=O)(=O)c1ccc2[nH]cc(C(=O)O)c(=O)c2c1,1.4
CC(C)(C)c1ccc(S(=O)(=O)NCc2ccc(C(=O)O)cc2)cc1,1.12
Cc1cccc(C)c1NC(=O)C(c1ccccc1)N1CCc2ccccc21 (configuration not stated),2.33
O=C(COc1ccc(Cl)cc1)N1CCN(C(=O)c2ccncc2)CC1,-0.65
Cc1ccc(C(=O)c2sc3nc4c(cc3c2N)C(=O)CC(C)(C)C4)cc1,1.13
CCSc1oc(-c2cccs2)nc1S(=O)(=O)c1ccc(C)cc1,1.24
COc1ccccc1-c1coc2cc(OCC(=O)OCC(C)C)ccc2c1=O,-0.25
CCCNC(=O)C1(O)c2cc(Br)ccc2NC(=O)N1c1ccccc1 (configuration not stated),-1
CC1(C)CC(=O)C2=C(C1)OC1=C(C(=O)CC(C)(C)C1)C2c1cccc(Oc2ccccc2)c1,0
CCn1c2ccccc2c2cc(C3C(C(=O)OCCOC)=C(C)NC4=C3C(=O)CCC4)ccc21 (configuration not stated),-0.69
COC(=O)c1ccc(NC(=O)c2cc3c(CO)cnc(C)c3oc2=Nc2ccc(Cl)cc2)cc1,-0.16
COC(=O)C1=C(C(=O)OC)SC2(S1)C(C(=O)OC)=C(C(=O)OC)SC1=C2c2cc(C)c(C)cc2NC1(C)C,0.21

# (list continues)
SMILES,Measles inh
O=C(c1ccco1)N1CCn2c1nc1ccccc12,0.18
Cc1nnc(NC(=O)C(C)C)s1,-0.59
COc1cc(NS(=O)(=O)c2cccc3nsnc23)cc(OC)c1,0.51
CC(=O)OC1=C(C)Sc2ccc(Br)c3cccc1c23,0.56
CC(=O)c1cccc(NC(=O)c2cc3ccccc3o2)c1,0.54
Cc1ccc(NC(=O)C2C3NC(=S)NC2(C)Oc2ccccc23)c(C)c1 (configuration not stated),-0.17
O=C(Nc1cccc(F)c1)c1cc(S(=O)(=O)N2CCC(C(=O)O)CC2)ccc1F,0.66
O=C(Nc1cccc(Cl)c1)Nc1nc(-c2ccccc2)cs1,0.08
CCn1c(C)[n+](CC(O)COc2ccccc2OC)c2ccccc21 (configuration not stated),0.86
CCOC(=O)c1ccc(Nc2nc(-c3cc4cc(OC)ccc4oc3=O)cs2)cc1,0.4
CCOC(=O)c1cc(Oc2ncnc3sc4c(c23)CCCC4)cc(C(=O)OCC)c1,-0.44
Cn1c(=O)cc(SCC(=O)Nc2cccc(Cl)c2)c2ccccc21,0.29
COC(=O)c1ccc(SCC(=O)N2CCC(C)CC2)c([N+](=O)[O-])c1,0.36
COCCN1C(=O)C(=O)/C(=C(/O)c2ccccc2)C1c1ccc(OC)cc1OC (configuration not stated),1.12
CC(N=Cc1nc2ccccc2n1C)C12CC3CC(CC(C3)C1)C2 (configuration not stated),2.19
CCOCCCNC(=O)c1ccc2c(=O)n(Cc3ccco3)c(=S)[nH]c2c1,0.08
CCCCNS(=O)(=O)c1cc(-c2nn(C)c(=O)c3ccccc23)ccc1C,-0.77
COCCOC(=O)C1=C(C)NC(=O)NC1c1cc(OC)c(O)c(OC)c1 (configuration not stated),1.64
COc1ccc(C2C3=C(CCCC3=O)N(c3ccc([N+](=O)[O-])cc3)C(=N)/C2=C(/O)c2ccc(C)cc2)cc1 (configuration not stated),-0.33
O=C1CCCN1CC1CCCNC1 (configuration not stated),1.11
COc1ccccc1NC(=O)c1sc2ncn(Cc3cccc(Br)c3)c(=O)c2c1C,0.62
CCCc1cc(N2CCN(c3ccccc3)CC2)n2c(nc3ccccc32)c1C#N,-0.27
Cc1cc(C)cc(-n2c(=O)c3sccc3n(Cc3ccccc3F)c2=O)c1,2.45
CCOc1ccc(C(=O)Nc2ccc(-c3nc4cc(C)c(C)cc4o3)cc2)cc1,0.16
COc1ccccc1NC(=O)c1cc2ccccc2c(C=Nc2ccc(OC(F)F)cc2)c1O,-0.13
COc1ccc(CCNc2ncnc3sc4c(c23)CCC(C)C4)cc1OC (configuration not stated),-0.36
CCOC(=O)C1=C(c2ccccc2)NC(=O)NC1c1ccccc1OC (configuration not stated),-0.35
CC(C)NC(=O)Cc1c(C(=O)O)[nH]c2ccc(Cl)cc12,1.03
Cc1ccc([N+](=O)[O-])cc1Nc1c([N+](=O)[O-])c(=O)oc2ccccc12,-0.6
Cc1cc(Br)ccc1OCc1nc(-c2ccc(Br)cc2)no1,0.12
N#Cc1cc(C#N)c(SCC(=O)Nc2ccccc2Br)nc1N,-0.43
Cc1ccn2c(Nc3ccccc3C)c(-c3ccc(N4CCOCC4)cc3)nc2c1,-0.41
CCOC(=O)c1sc2nc3c(c(-c4ccc(C)o4)c2c1N)CCCC3,-0.62
CC(C)C(NS(=O)(=O)c1cccs1)C(=O)NCCc1ccccc1 (configuration not stated),0.28
Cc1ccc(NC(=O)c2cc3c(=O)oc4ccccc4c3s2)cc1C,0.59
c1ccc(Cn2c(CSc3nc4ccccc4[nH]3)nc3ccccc32)cc1,-0.17
C=CCOC(=O)C1=C(C)N(CC)C(=O)NC1c1ccc(Br)cc1 (configuration not stated),0.38
CC(=O)OCCOc1nc(N(C)C)nc(N(C)C)n1,0.68
COc1cc(-c2nnc(SCC(=O)c3ccc(Cl)cc3)o2)cc(OC)c1OC,-0.15
Cc1ccc(-c2nc(N3CCCC3)c3ccccc3n2)cc1,-1.05
COc1ccc(C=Cc2nc(=O)c(-c3ccccc3)c(C)n2-c2ccccc2)cc1,0.61
Cc1nn(C(=O)c2ccc([N+](=O)[O-])cc2)c(C)c1Sc1ccccc1,-0.85
CC(=O)N1CCCc2cc(S(=O)(=O)Nc3cccc(C)c3C)ccc21,0.43
O=C(CSc1nc2ccc(N3C(=O)C4CCCCC4C3=O)cc2s1)c1ccccc1 (configuration not stated),-0.39
COc1cccc(CN2CCCC(C(=O)N3CCCCCC3)C2)c1OC (configuration not stated),-0.16
Cc1cccc(NC(=O)c2ccccc2NC(=O)c2cccc(S(=O)(=O)N3CCCCCC3)c2)c1,-0.4
O=C(c1ccccc1C(F)(F)F)N1CCN=C1SCc1cccnc1,-0.78
Nc1c(C(=O)O)sc2ccc(S(=O)(=O)N3CCCCC3)cc12,-0.24
O=C(O)c1cccc2nccnc12,-0.09
CC1CCN(C(=O)CSc2nc(NCc3ccc(Cl)cc3)c3ccccc3n2)CC1,-1.41
O=C(CC1Sc2ccc(C(F)(F)F)cc2NC1=O)Nc1ccc2c(c1)OCO2 (configuration not stated),0.21
CC(CCc1ccccc1)NC(=O)C1C2C=CC3(CN(Cc4ccccc4Cl)C(=O)C13)O2 (configuration not stated),-1.61
Clc1ccc2nc3c(c(Nc4ccc5c(c4)OCO5)c2c1)CCCC3,-1.67
NC(=O)c1cc2nc(-c3cccs3)cc(C(F)(F)F)n2n1,-0.53
Cc1ccc(NS(=O)(=O)c2cc(C(=O)O)ccc2Br)cc1,0.61
CCc1cccc(CC)c1NS(=O)(=O)c1ccc2c(c1)CCC(=O)N2,-0.92
COc1cccc(-c2nnc(Sc3ccc(C(C)=O)cc3[N+](=O)[O-])n2-c2ccccc2)c1,-1.55
O=C(O)c1ccc(-n2nnnc2SCC(=O)N2CCCCC2)cc1,-0.31
N#CCSc1nc(-c2cccs2)cc(-c2cccs2)c1C#N,-0.08
CC(=O)N1CCN(C(=O)c2ccc(NCc3ccccc3Cl)c(S(=O)(=O)Nc3cccc(C(F)(F)F)c3)c2)CC1,0.71
# More compounds follow.
SMILES,Measles inh
COc1ccccc1N1CCN(c2nc(-c3ccccc3)cc(C(F)(F)F)n2)CC1,-1.07
O=C1c2ccc(Oc3ccc4c(c3)C(=O)N(c3ccccn3)C4=O)cc2C(=O)N1c1ccccn1,-0.29
O=C(O)CC(Sc1nc2sc3c(c2c(=O)[nH]1)CCCC3)C(=O)O (configuration not stated),0.34
CCc1ccc(NC(=O)c2ccc(NCCc3ccccc3)c([N+](=O)[O-])c2)cc1,1.8
Cc1cc(-c2ccccc2)n(-c2cc(N3CCOCC3)ncn2)n1,-0.9
Cn1c(=O)c2c(nc3n(-c4ccccc4)c(-c4cccs4)cn23)n(C)c1=O,-0.34
CCOC(=O)c1sc(NC(=O)C2C3C=CC(C3)C2C(=O)O)nc1C (configuration not stated),0.57
COc1ccc(-c2nc3c4c5c(sc4ncn3n2)CCCCC5)cc1OC,-0.07
COc1ccc(C2=NC(c3cccc(F)c3)NC(c3cc(Cl)ccc3O)C2)cc1 (configuration not stated),2.65
COc1ccccc1N(CC(=O)Nc1ccc(Cl)cc1)S(=O)(=O)c1ccc(C)cc1,-0.3
CCOc1ccccc1N1C(=O)NC2CC1(C)Oc1ccc([N+](=O)[O-])cc12 (configuration not stated),-0.94
CC(=O)N(C1=C(N(C)C)C(=O)c2ccccc2C1=O)c1ccc(C(=O)O)cc1,-0.22
CC1=NN(C(=O)C(C)C)C(O)(c2cccnc2)C1 (configuration not stated),-0.53
COc1ccc(OC)c(CNC(=O)c2cn(C)c(=O)c3c2c2ccccc2n3C)c1,-1.41
Cc1ccc(Nc2ncc(C(=O)NCCCN3CCN(C)CC3)c3ccccc23)cc1Cl,-1.23
CCN1C(=O)CC(C(=O)Nc2ccc(C(=O)OC)cc2)SC1=Nc1ccccc1 (configuration not stated),-0.32
COC(=O)c1ccc(C=Nc2ccc(-c3nc4ccccc4s3)cc2)cc1,-0.45
CC(=O)Nc1ccc(-n2c(C=Cc3ccc(F)cc3)nc3ccccc3c2=O)cc1,1.23
Cc1ccc(C(=O)CC2(O)C(=O)N(Cc3ccccc3C)c3ccccc32)cc1 (configuration not stated),-0.16
O=C(CC(C(=O)N1CCc2ccccc21)n1ccnc1)NCc1cccnc1 (configuration not stated),-0.43
COc1ccc(N=Cc2cc(Cc3ccccc3)cc(Br)c2O)cc1OC,-0.79
Cc1ccc(C(=O)COC(=O)c2ccc(F)cc2)cc1[N+](=O)[O-],-0.77
CCN(CC)c1ccc(C2Nc3cc(C)ccc3NC3=C2C(=O)CC(C)(C)C3)cc1 (configuration not stated),0.99
CCc1ccccc1NC(=O)c1ccc(F)c(S(=O)(=O)N2CCC(C(N)=O)CC2)c1,0
COc1ccc(C)cc1NS(=O)(=O)c1cc(Br)cc2c1N(C(C)=O)C(C)C2 (configuration not stated),1.21
COc1ccc(C(=O)N(c2ccccc2)c2ccc3ccccc3c2)cc1OC,-0.78
C=CCN1C(=O)C2(Oc3ccc(Br)cc3C3CC(c4ccc(OC)cc4)=NN32)c2ccccc21 (configuration not stated),0.2
Cc1ccc(C(=O)Nc2ccc3oc(-c4ccc(F)cc4)nc3c2)cc1C,-1.02
COc1ccc(C2=NN(CC(=O)N3CCCC3)C(=O)CC2)cc1,-0.54
NC(=O)CSc1nc2c(c(=O)n1Cc1ccco1)C1(CCCCC1)Cc1ccccc1-2,0.96
Cc1ccc(NC(=O)c2cc(S(=O)(=O)N3CCc4ccccc43)ccc2F)cc1F,0.95
CCOc1ccc(NC(=O)CSc2nc3ccccc3c(=O)n2C2CC2)cc1,-0.28
CC1CCN(c2ccc(C(=O)O)cc2[N+](=O)[O-])CC1,-0.57
CCOc1ccccc1Nc1ncnc2ccccc12,-0.15
Cc1ccc(-n2nc(C(=O)NCCCN3CCCC3=O)c3c4ccccc4n(C)c3c2=O)cc1,0.25
COc1ccc(CNC(=O)CSc2nc3ccccc3o2)cc1,-0.17
O=C(CCCC1=NS(=O)(=O)c2ccccc2N1)Nc1ccc2c(c1)OCCO2,-1.14
O=C(Nc1sc2c(c1C(=O)NCC1CCCO1)CCCC2)c1ccco1 (configuration not stated),-1.24
CC1CCCCC1NC(=O)c1ccc(Sc2ccc(Br)cc2)c([N+](=O)[O-])c1 (configuration not stated),0.68
CN(C)S(=O)(=O)c1ccc(C(=O)Nc2ccc(C34CC5CC(CC(Cl)(C5)C3)C4)cc2)cc1,-0.19
CCCCOc1ccc(OC(=O)c2ccc3c(c2)-c2ccccc2C3=O)cc1,-0.45
Cc1ccc(NC(=O)c2ccc(-c3ccccc3)cc2)nc1,-0.14
CCOC(=O)c1c(NC(=O)c2ccc(Cl)c([N+](=O)[O-])c2)sc(C(=O)Nc2ccccc2C)c1C,0.04
